# Screens deposited in PubChem BioAssay by National Center for Advancing Translational Sciences (NCATS).
# TRPML1 agonist: activates the human TRPML1 channel; actives 0.12% (n = 410,000); AID 624414; activation, % (concentration not given with the values); TRPML1-expressing cells, Ca2+ dye fluorescence, FDSS; host cell line not named in the record; reference of the full effect not given here; in the data active = activation above about 50%; inconclusive = about 30% to 50%; inactive = below about 30%; note: 0% is about no effect; the text of the record puts the active cut at 80%
# Target sequence (Q9GZU1 whole entry, looked up): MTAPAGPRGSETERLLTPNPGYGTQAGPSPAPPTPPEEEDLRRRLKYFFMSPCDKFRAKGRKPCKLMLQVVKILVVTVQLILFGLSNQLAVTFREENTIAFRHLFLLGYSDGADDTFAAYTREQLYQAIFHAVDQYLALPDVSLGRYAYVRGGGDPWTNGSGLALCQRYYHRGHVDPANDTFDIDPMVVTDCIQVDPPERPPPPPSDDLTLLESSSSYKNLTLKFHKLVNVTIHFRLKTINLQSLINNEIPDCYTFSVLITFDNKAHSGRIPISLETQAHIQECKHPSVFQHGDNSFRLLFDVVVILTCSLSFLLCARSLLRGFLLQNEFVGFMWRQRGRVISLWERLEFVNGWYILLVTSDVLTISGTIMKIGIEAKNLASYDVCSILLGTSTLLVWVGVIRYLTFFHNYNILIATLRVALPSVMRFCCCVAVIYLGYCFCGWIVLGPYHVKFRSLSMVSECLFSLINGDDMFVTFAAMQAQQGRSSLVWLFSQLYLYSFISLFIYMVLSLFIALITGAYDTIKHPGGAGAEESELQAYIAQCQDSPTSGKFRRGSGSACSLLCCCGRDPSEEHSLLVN
#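 Agonist activity was taken from a 110 s kinetic Ca2+ dye read on the FDSS after pinning compounds onto TRPML1-DL cells. The cells were seeded at 1,500/well with Tet inducer, incubated about 16 h, then dye-loaded at room temperature.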
# TRPML1 blocker: human mucolipin-1 channel inhibition | TRPML1-inducible cells, Ca2+ dye fluorescence, FDSS; hits give low values; inhibition of EC80 agonist-evoked calcium signal | actives 0.02% (n = 390,000) | Q9GZU1 | activity change, negative = inhibition, % (concentration not given with the values); in the data active means activity change below about -50%; inconclusive means about -30% to -50%; inactive means above about -30%;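 note: stimulus is agonist 54-4 at its EC80 concentration; % is set by controls: 0 for no effect and ±100 for the full control effect; compound concentration not given in the record; the text of the record puts the active cut at -80%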
#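 TRPML1-DL cells, Tet-induced overnight (~16 h, 37 °C) at 1,500 cells/well, were loaded with Ca8 no-wash dye plus quencher for 45-90 min at room temperature. Compounds were pinned during FDSS kinetic reading; agonist 54-4 at EC80 (4 uM final) then added.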
# gsp antag: gsp mutant antagonism; Potency, µM (doses to about 76.9 µM), inactives show at the highest dose activity change, negative = inhibition, actives largely listed as inhibitors; actives 0.4% (n = 340,000); gsp-mutant cells, cAMP HTRF, 30 min; control for the full effect not named in the record; active = falling curve of any shape with a large fitted effect; inconclusive = falling curve, mostly with a smaller effect; inactive = flat or rising curve; cell line not stated here;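 note: intracellular cAMP measured with PDE inhibitor Ro 20-1724 present during compound exposure; potency is the fitted concentration of half-maximal effect; % is set by controls: 0 for no effect and ±100 for the full control effect; nearly all actives have a fitted effect of over 65% in size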
#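 G418-selected cells were plated in DMEM/10% FBS for 16-24 h at 37C, then treated with compounds plus the PDE inhibitor […] (300 uM solution added) for 30 min at 37C. Intracellular cAMP was measured by HTRF after 30 min lysis at room temperature.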
# ClpP mod: qHTS Assay for Activators of ClpP | actives 1.9% (n = 340,000) | ATP-dependent Clp protease proteolytic subunit (Bacillus subtilis (strain 168)), P80244 | AID 651965, 2013 | Potency, µM (series often up to 57.5 µM), inactives show top-dose activity change, negative = active | purified B. subtilis ClpP, FRET peptide cleavage, 20 min; active = well fitted falling curve with a large enough effect; inconclusive = small, poorly fitted or top-dose-only effect; inactive = no such curve, though single readings can be large or run the other way; note: potency is the fitted concentration of half-maximal effect; the source files actives as falling curves though it sought activators and does not explain the sign; nearly all actives have a fitted effect of over 65% in size; many hits overshoot -100%
# Target sequence (P80244 whole entry, looked up): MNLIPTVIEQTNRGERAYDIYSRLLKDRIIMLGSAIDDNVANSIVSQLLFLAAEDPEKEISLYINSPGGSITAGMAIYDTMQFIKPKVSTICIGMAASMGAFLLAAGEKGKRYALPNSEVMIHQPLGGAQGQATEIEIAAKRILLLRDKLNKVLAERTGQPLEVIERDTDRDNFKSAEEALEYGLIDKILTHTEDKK
#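 Purified B. subtilis ClpP, 10 microg/mL final in Tris/HCl pH8 with KCl, BSA, glycerol and Tween-20, cleaved an Abz/nitrotyrosine-quenched decapeptide. Fluorescence (ex 320, em 430) was read at 0 and 20 min at room temperature. Delta was normalized to 5.8 microM ADEP and DMSO/no-enzyme controls.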
# Menin-MLL FL inh: displaces fluorescein MLL peptide from human menin | Fluorescence polarization, fluorescein-MLL peptide displacement from menin | FP activity change, % at 61.4 µM | 290,000 tested, under 10 active | AID 1766; inconclusive = falling polarisation curve, or a change in total fluorescence; inactive = total fluorescence flat and polarisation flat or rising; no compound was filed as active; the % refers to the polarisation; negative = inhibition;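 note: % of control where 0% means no effect; inhibitors lower the polarisation; unlabelled MLL peptide was the positive control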
# gsp ag: gsp mutant agonism | gsp mutant cells, cAMP HTRF, 30 min; control for the full effect not named in the record | Potency, µM (top dose mostly 76.9 µM), inactives show top-dose activation (cAMP increase), hits mostly activators | AID 624287 | actives 0.13% (n = 340,000); active = well fitted activation curve with a large enough effect; inconclusive = small, poorly fitted or top-dose-only effect, or another doubt; inactive = no such curve, though single readings can be large or run the other way; cell line not stated here;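 note: phosphodiesterase inhibitor Ro 20-1724 added with compounds to block cAMP breakdown; potency is the fitted concentration of half-maximal effect; nearly all actives have a fitted effect of over 60% in size; about a fifth of the inactives were tested at one dose only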
#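 Cells stably selected in G418 were plated at 2000/well, grown 16-24 hr, then given compounds in DMSO with the PDE inhibitor […] (300 uM solution added) for 30 min at 37C; cAMP was read by HTRF.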
# An asterisk follows results filed as active; ? = inconclusive; nt = not tested or not shown; & = joins results of further samples; [ ] = remark or other dose.
SMILES,TRPML1 agonist,TRPML1 blocker,gsp antag,ClpP mod,Menin-MLL FL inh,gsp ag
CN1OC(c2ccccc2)=C(CO)C1c1ccccc1 (configuration not stated),0.9,1.2,-0.7%,-1.4%,-1.1,-42.0%
CCCCCCn1nc(C(=O)N(CC(C)C)c2c(N)n(CCCC)c(=O)[nH]c2=O)c2ccccc2c1=O,-0.5,-3.6,-17.2%,0.8%,nt,-1.2%[15.4 µM]
C=CCSc1nnc(CCc2ccccc2)n1N,0.4,6.7,1.6%,-0.5%,nt,0.4%[15.4 µM]
CCOc1ccc2sc(NS(=O)(=O)c3ccc(N)cc3)nc2c1,0.0,-17.8,-3.4%,nt,-2.9,2.5%[15.4 µM]
Cc1ccc(C)c(CNC(=O)C2CCCCN2S(=O)(=O)c2ccc(F)cc2)c1 (configuration not stated),-0.1,45.2,nt,-0.3%,nt,nt
COc1ccc(Nc2cc(C(=O)NCCCN(C)C3CCCCC3)c3ccccc3n2)cc1,0.0,19.1,nt,0.5%,nt,nt
CCN(CC)c1ccc(NC(=O)Cn2c(C)c3cnn(-c4ccccc4)c(=O)c3c2C)c(C)c1,-1.1,13.3,nt,-2.7%,nt,nt
O=C(Oc1ccccc1N1CCOCC1)c1sccc1Br,0.9,55.1,-11.0%,-0.9%,2.2,1.0%[15.4 µM]
CCNC(=S)Nc1nc2c(cc1C(=O)OCC)CCCC2,-0.3,12.0,4.6%,-2.5%,-4.5,9.8%[15.4 µM]
COc1ccc(C(=O)C2CCCN(C(=O)CCc3scnc3C)C2)c(C)c1 (configuration not stated),-1.0,13.1,-6.5%,nt,?,-6.8%
O=C(CC1NCCNC1=O)Nc1ccccc1 (configuration not stated),0.9,-0.6,3.3%,nt,3.0,7.2%[15.4 µM]
COCCn1c(SCC(=O)Nc2nc(C)cs2)nnc1C(C)C,0.6,4.3,5.4%,nt,1.1,-27.3%
Clc1ccc(-c2cc(COc3ccc4ccccc4c3)no2)cc1,1.0,-18.3,19.4%,-18.5%,3.4,?
Cc1ccc(C(=O)NNC(=O)c2nn(-c3ccc(F)cc3)ccc2=O)cc1,-0.9,31.6,0.2%,nt,0.4,-1.4%
Cc1ccc(S(=O)(=O)N(C)C[C@@H]2OCc3ccccc3-c3c(n(C)c4ccccc34)C(=O)N([C@H](C)CO)C[C@@H]2C)cc1,1.7,-11.9,nt,-3.5%,nt,-19.1%
COc1ccc(S(=O)(=O)Nc2c(C)n(C)n(-c3ccccc3)c2=O)cc1Br,-0.7&-1.2,-0.6&-14.7,2.5%,-0.2%&1.3%,-0.8,-8.2%
Cn1ncc(C#N)c1/N=C/N1CCOCC1,0.5,-8.4,4.4%,0.5%,1.4,-7.3%
CC(C)c1ccc(N2C(=NC(=O)C3CC3)SC3CS(=O)(=O)CC32)cc1 (configuration not stated),1.1,-9.2,8.3%,2.4%,2.9,7.7%
O=C(NCc1ccccc1Cl)C1CCC(CNc2nc(=S)[nH]c3ccccc23)CC1 (configuration not stated),-0.4,-1.4,10.4%,-1.8%,0.2,-12.4%[15.4 µM]
COc1ccccc1C(C)N(C)Cc1nc(COc2ccccc2)no1 (configuration not stated),1.4,1.2,4.9%,nt,0.7,-11.6%[15.4 µM]
CCCCNS(=O)(=O)c1ccc(C)c(-c2nnc3c4ccccc4c(C)nn23)c1,0.5,50.2,nt,-5.3%,nt,nt
O=C(O)CCN1/C(=C/C=Nc2ccccc2)Oc2ccccc21,0.2,-13.0,5.9%,-5.8%,0.7,-37.4%[inhibitor]
Cc1ccc([N+](=O)[O-])cc1NC(=O)Nc1cccc(F)c1,-0.3,0.7,?,3.1%,8.5,?
Cc1ccc(NC(=S)N(CCN2CCCCC2)Cc2ccco2)cc1,-0.9,-2.1,8.8%,-0.9%,2.2,8.8%[15.4 µM]
CCCCCCC(=O)Nc1cc2nc3c(nc2cc1C)c(=O)n(C)c(=O)n3C,1.5,-3.8,nt,2.6%,nt,nt
O=C1Nc2cc(Br)ccc2C1(O)c1ccccc1O (configuration not stated),0.3,-4.2,0.5%,nt,3.3,7.8%
CC1CC(=O)N(CC(=O)Nc2ccc(OC(F)(F)F)cc2)c2ccccc2S1 (configuration not stated),3.8,-4.0,nt,2.3%,nt,nt
CCOC(=O)c1cc(S(=O)(=O)N(C)Cc2ccccc2)cn1C,0.3,2.7,1.7%,nt,nt,-7.3%
CN1CCN(C(c2ccc(Br)cc2)c2cc(Cl)c3cccnc3c2O)CC1 (configuration not stated),-0.4,12.8,9.3%,nt,-8.0,6.7%[15.4 µM]
CN(CC(=O)NCc1cccs1)CC(=O)Nc1ccccc1Cl,-0.6,14.5,nt,0.4%,nt,-24.2%
Cc1nn(-c2ccccc2)c(C)c1/C=N/n1c(-c2ccncc2)n[nH]c1=S,0.5,6.8,-2.9%,nt,-0.1,2.8%[15.4 µM]
Cc1ccc(Cn2c(C)c(CNC3CCCCC3)c(C(=O)O)c2C)cc1,-0.5,-17.8,nt,0.8%,nt,nt
Cc1nnsc1C(=O)N1CCN(c2ccc(C#N)cn2)CC1,-0.2,-11.0,-5.7%,nt,1.2,13.6%[15.4 µM]
O=C(N/N=C/c1cc2c(cc1Br)OCO2)c1c[nH]c2ccccc12,1.2,-14.5,-29.2%,-6.6%,2.5,-19.6%
Cc1ccc(-c2cc(C(=O)N/N=C/C(Br)=C/c3ccccc3)n[nH]2)o1,4.7,12.2,-11.3%,nt,-1.1,-28.5%
COc1cc(C(=O)N2CCN(c3ccccc3)CC2)c2ccccc2n1,2.5,-0.1,1.0%,nt,nt,26.2%
COC(=O)CC1C(=O)NCCN1C(=O)CSc1nc2cc(Cl)ccc2o1 (configuration not stated),0.3,-0.1,nt,nt,0.4,7.3%[15.4 µM]
O=[N+]([O-])c1ccc(CN2CC(N3CCC(c4ccccc4)CC3)CS2(=O)=O)cc1 (configuration not stated),-0.2,15.6,nt,-1.6%,nt,nt
Cc1cc(=O)[nH]c(SCc2cn3ccccc3n2)n1,0.1,0.6,-3.2%,nt,-10.9,8.0%[15.4 µM]
C/C=C(/C)C(=O)O[C@@H]1[C@H](OC(=O)C=C(C)C)c2c(ccc3ccc(=O)oc23)OC1(C)C,-0.7,4.2,-8.2%,-19.9%,-1.3,4.5%
CN(C)C1(CNC(=O)c2cccc(S(=O)(=O)Nc3ccc(Br)cc3)c2)CCCCC1,1.3,2.2,-9.0%,-2.1%,nt,8.1%
Cc1nnn(-c2nonc2N)c1C(=O)N/N=C/c1cccc2ccccc12,0.5,-13.8,9.6%,nt,-0.4,12.9%[15.4 µM]
COc1ccc(C)cc1S(=O)(=O)N(C)CC(=O)N1CCCC1,0.1,-9.6,5.4%,-1.2%,-2.1,?
Cc1ccc(S(=O)(=O)Nc2cccnc2)cc1,0.7,-6.0,-14.7%,-0.1%,0.5,29.8%
Cc1cccc(-n2c(SCC(=O)Nc3ncc(Cl)cc3Cl)nc3ccccc32)c1,2.7,-1.3,-23.0%,-5.2%,0.6,8.5%
Cc1ccsc1/C=N\NC(=O)CC(=O)NCc1ccccc1,0.5,-12.0,13.2%,nt,5.3,-13.5%[15.4 µM]
COc1ccccc1NC(=O)CSc1nnc(-c2nonc2NC(C)=O)n1-c1ccccc1,-0.8,0.0,nt,1.9%,nt,nt
COc1ccc(OC)c(CN2CCN(C(=O)c3cc4ccccc4cc3O)CC2)c1,0.5,-21.3,-13.8%,-4.8%,1.8,14.2%[15.4 µM]
COc1ccccc1-c1nc(SCC(=O)Nc2cc(C)on2)c2c(=O)n(C)c(=O)n(C)c2n1,-0.4,4.5,6.5%,-4.2%,nt,-27.9%
CC1CN(C(=O)c2cc([N+](=O)[O-])cc([N+](=O)[O-])c2)CC(C)O1 (configuration not stated),-0.4,10.2,3.2%,1.8%,0.7,-17.3%

# Next part.
SMILES,TRPML1 agonist,TRPML1 blocker,gsp antag,ClpP mod,Menin-MLL FL inh,gsp ag
COc1ccc(C2NC(=O)N(C)C3=C2C(=O)N(c2cccc(Cl)c2)C3)cc1 (configuration not stated),-0.9,-5.8,nt,-17.4%,nt,nt
O=C(O)c1cccc(-c2ccc3c(c2)OCO3)c1,0.1,-6.7,-19.4%,-7.8%,-1.7,-16.4%
CCOc1ccc(NC(=O)c2nc(SCC)ncc2Cl)cc1,0.5,-4.0,-5.8%,2.0%,-8.1,-23.9%
COC1C(CO)OC(n2cnc3c(=S)nc(N)[nH]c32)C1O (configuration not stated),-0.3,-11.3,-0.2%,3.0%,nt,-2.1%
Cc1c(CC(=O)O)c(=O)oc2c(C)c(OCc3c(F)cccc3Cl)ccc12,-0.5,15.9,-17.0%,3.8%,-2.3,8.0%
O=C(CCCN1C(=O)c2ccccc2C1=O)Nc1c(C(=O)C2CC2)oc2ccccc12,-0.1,-8.7,-5.1%,-3.6%,-1.7,-7.7%
CCOc1ccc2nc(NC(=O)c3ccc(OC)c(S(=O)(=O)N4CCOCC4)c3)sc2c1,0.1,5.0,-33.7%,-8.0%,2.2,-22.9%
CCN(CC(=O)NCc1ccc(F)cc1)C(=O)c1cc2ccccc2o1,-0.6,-9.7,11.2%,nt,4.3,1.9%[15.4 µM]
COc1ccc(CCNS(=O)(=O)c2ccc(-c3ccc(=O)[nH]n3)o2)cc1OC,-0.1,-4.6,21.1%,1.6%,0.4,20.0%
Cc1cc(C)n(CC2CC(=O)N(c3ccc(Cl)c(Cl)c3)C2=O)n1 (configuration not stated),-1.2,22.3,0.1%,-4.3%,8.8,?
Fc1ccc(C(Nc2ccccc2Cl)c2nnc(-c3ccccc3Cl)o2)cc1 (configuration not stated),0.1,7.1,nt,-1.7%,nt,nt
NS(=O)(=O)c1ccc(NC(=S)N2CCN(c3cccc(Cl)c3)CC2)cc1,1.0,-26.7,3.7%,0.5%,nt,3.1%
CCOC(=O)c1oc2cccc(OC(C)=O)c2c1C,-0.7,4.9,-5.8%,?,4.3,17.4%
Cc1ccc(N2C(=S)NC3c4cc(Cl)ccc4OC2(C)C3C(=O)N(C)C)cc1 (configuration not stated),-0.2,0.6,3.6%,-2.9%,0.0,23.7%
Cc1nnc(SCC(=O)Nc2sccc2C#N)n1Cc1ccccc1,-1.2,-3.2,1.5%,0.2%,?,-0.9%
O=C(NCC1CCCO1)C(c1ccncc1)N(Cc1cccs1)C(=O)Cn1nnc(-c2ccc(F)cc2)n1 (configuration not stated),-0.7,19.8,-25.0%,nt,1.0,-8.7%[15.4 µM]
COc1cc(NC(=S)NNC(=O)CC(C)C)c(OC)cc1Cl,-0.3,-6.0,-18.6%,0.0%,3.3,2.0%
COc1ccccc1NC(=O)CSc1nnnn1C1CCCCC1,-1.4,4.6,-21.8%,0.0%,nt,5.9%[15.4 µM]
CC(CC(=O)NCc1ccc(Cl)cc1Cl)CC1=NS(=O)(=O)c2ccccc2N1 (configuration not stated),1.8,-3.1,nt,-2.0%,nt,nt
